Bioassay records (PubChem BioAssay)
NPYLR7 agonist = mosquito NPYLR7 agonism; HEK293T NPYLR7/Galpha15, GCaMP6s calcium fluorescence; activation, % at 10 µM; 270,000 compounds, 0.15% hits; in the data active = activation above about 40%;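 also: 0% = vehicle and 100% = reference agonist at the receptor; some compounds past the cut are filed as inactive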
NPYLR7 agonist max-min = second read-out of NPYLR7 agonist, no call of its own (marks repeat the call); activation, %; measured here: Max-Min RFU normalised activation; some inactives read as strong as hits;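 span of the calcium signal over five minutes; 0% = vehicle and 100% = native peptide agonist; compound fluorescence can raise it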
* = called active by the depositor; & = joins results of further samples.

Preview (22 entries):
SMILES | NPYLR7 agonist | NPYLR7 agonist max-min
CC1SC(c2cccc(C(F)(F)F)c2)N(CCO)C1=O (stereo unspecified) | 3.5 | -1.6
COc1ccc(OC)c(S(=O)(=O)N2CCN(CC3CCCCC3)CC2)c1 | 1.8 | 0.1
Cc1ccc(S(=O)(=O)N2CCOCC2)cc1N=Cc1cc(Br)ccc1O | 6.3 | 2.1
COc1ccc(CCCC(=O)N2CCNC(C(=O)O)C2)cc1 (stereo unspecified) | 2.3 | 11.7
COCc1cc(N2CCCC2)nc(SCc2ccc(C(=O)NCc3cccnc3)cc2)n1 | 10.5 | 9.9
O=C(c1ccsc1)N1CCC(N2CCCC(C(=O)N3CCCC3)C2)CC1 (stereo unspecified) | -0.4 | -0.7
CN(C(=O)C1CC(=O)N(C2CCCC2)C1)c1cccc2ccccc12 (stereo unspecified) | 2.8 | 1.4
Cc1ccccc1Cn1c(N2CCN(Cc3cccc4ccccc34)CC2)nc2c1c(=O)[nH]c(=O)n2C | -4.3 | -7.5
CCOC(=O)c1ccc(S(=O)(=O)NCCn2nc(-c3ccccc3)ccc2=O)cc1 | -1.2 | -1.5
CC(C)Oc1ccc(CN2CCC2(C)C(=O)NC2CCN(Cc3ccccc3)CC2)cc1 (stereo unspecified) | 2.6 | -0.1
COc1ccc(NC(=O)NC2CCCN(C3CCCCCC3)C2)cc1OC (stereo unspecified) | 20.8 | 10.5
O=C(NCc1ccc(F)cc1)c1ccc(CSc2nnc(-c3ccccc3[N+](=O)[O-])n2Cc2ccccc2)cc1 | 4.5 | 12.3
COc1ccc2nc(Nc3nc(C)c(C)c(C)n3)nc(C)c2c1 | -4.1 | -4.4
COc1ccccc1NC(=O)N(Cc1nnc2n1CCCCC2)c1ccccc1 | 3.2 | 2.1
CN=c1scc(-c2ccco2)n1/N=C\c1c(O)ccc2ccccc12 | 1.2 | 0.1
CC(=O)c1csc(N)n1 | 0.0 | -2.8
Cn1ncc2c(=O)n(CC(=O)Nc3ccc(N=Nc4ccccc4)cc3)cnc21 | -0.6 | 6.4
NS(=O)(=O)c1ccc(S(=O)(=O)N2CCNCC2)cc1 | 1.5 | 7.9
CCc1nn2c(ncc3c(=O)n(-c4ccccc4)ccc32)c1-c1ccccc1 | 7.7 | 7.3
O=C(c1cccs1)c1cccs1 | -0.8 | 15.3
COCCN(CC(=O)N(Cc1cccn1Cc1ccccc1Cl)C1CCCCC1)S(=O)(=O)c1ccc(NC(C)=O)cc1 | 13.4 | 17.3
O=C(CCN1C(=O)C=CC1=O)N1CCC(n2c(-c3ccccc3)nc3ccc(F)cc32)CC1 | -4.0 | -10.0

Results, from the first entry:
SMILES | NPYLR7 agonist | NPYLR7 agonist max-min
CC1SC(c2cccc(C(F)(F)F)c2)N(CCO)C1=O (stereo unspecified) | 3.5 | -1.6
COc1ccc(OC)c(S(=O)(=O)N2CCN(CC3CCCCC3)CC2)c1 | 1.8 | 0.1
Cc1ccc(S(=O)(=O)N2CCOCC2)cc1N=Cc1cc(Br)ccc1O | 6.3 | 2.1
COc1ccc(CCCC(=O)N2CCNC(C(=O)O)C2)cc1 (stereo unspecified) | 2.3 | 11.7
COCc1cc(N2CCCC2)nc(SCc2ccc(C(=O)NCc3cccnc3)cc2)n1 | 10.5 | 9.9
O=C(c1ccsc1)N1CCC(N2CCCC(C(=O)N3CCCC3)C2)CC1 (stereo unspecified) | -0.4 | -0.7
CN(C(=O)C1CC(=O)N(C2CCCC2)C1)c1cccc2ccccc12 (stereo unspecified) | 2.8 | 1.4
Cc1ccccc1Cn1c(N2CCN(Cc3cccc4ccccc34)CC2)nc2c1c(=O)[nH]c(=O)n2C | -4.3 | -7.5
CCOC(=O)c1ccc(S(=O)(=O)NCCn2nc(-c3ccccc3)ccc2=O)cc1 | -1.2 | -1.5
CC(C)Oc1ccc(CN2CCC2(C)C(=O)NC2CCN(Cc3ccccc3)CC2)cc1 (stereo unspecified) | 2.6 | -0.1
COc1ccc(NC(=O)NC2CCCN(C3CCCCCC3)C2)cc1OC (stereo unspecified) | 20.8 | 10.5
O=C(NCc1ccc(F)cc1)c1ccc(CSc2nnc(-c3ccccc3[N+](=O)[O-])n2Cc2ccccc2)cc1 | 4.5 | 12.3
COc1ccc2nc(Nc3nc(C)c(C)c(C)n3)nc(C)c2c1 | -4.1 | -4.4
COc1ccccc1NC(=O)N(Cc1nnc2n1CCCCC2)c1ccccc1 | 3.2 | 2.1
CN=c1scc(-c2ccco2)n1/N=C\c1c(O)ccc2ccccc12 | 1.2 | 0.1
CC(=O)c1csc(N)n1 | 0.0 | -2.8
Cn1ncc2c(=O)n(CC(=O)Nc3ccc(N=Nc4ccccc4)cc3)cnc21 | -0.6 | 6.4
NS(=O)(=O)c1ccc(S(=O)(=O)N2CCNCC2)cc1 | 1.5 | 7.9
CCc1nn2c(ncc3c(=O)n(-c4ccccc4)ccc32)c1-c1ccccc1 | 7.7 | 7.3
O=C(c1cccs1)c1cccs1 | -0.8 | 15.3
COCCN(CC(=O)N(Cc1cccn1Cc1ccccc1Cl)C1CCCCC1)S(=O)(=O)c1ccc(NC(C)=O)cc1 | 13.4 | 17.3
O=C(CCN1C(=O)C=CC1=O)N1CCC(n2c(-c3ccccc3)nc3ccc(F)cc32)CC1 | -4.0 | -10.0
CN1CC2(CCCN(C(=O)c3ccn(C(C)(C)C)c3)C2)OC1=O (stereo unspecified) | 6.3 | 4.3
Cc1ccnc(NC(=O)C(C)c2cccc(C(=O)c3ccccc3)c2)c1 (stereo unspecified) | -12.7 | -23.8
CC(C)N(C)S(=O)(=O)c1ccc(NC(=O)NC(C)(C)C2CC2)cc1 | 1.0 | -0.7
Cc1ncc(CN2CCN(Cc3ccsc3)C(CCO)C2)s1 (stereo unspecified) | 11.2&-1.7 | 2.8&-2.0
C/C=C/c1cc(C(=O)Nc2nc(C)cs2)cc(OC)c1OC | 2.3 | 3.9
COc1cc(NC(=O)C(C2CCCC2)N2CCN(C(=O)c3cccc(F)c3)CC2)cc(OC)c1 (stereo unspecified) | -0.7 | 6.5
O=c1c(O)c(-c2ccccc2)oc2cccc(O)c12 | 1.0 | -9.3
CC(Nc1ccc2c(c1)OCCCO2)C(=O)N1CCc2ccccc21 (stereo unspecified) | 6.4 | 5.1
Cc1ccc(-c2ccccc2-c2ccccc2)nn1 | -2.1 | -4.6
Cc1cc(C)c(S(=O)(=O)N(Cc2cccc(OS(=O)(=O)c3cccc(C(F)(F)F)c3)c2)CC(C)C)c(C)c1 | -9.7 | -13.6
CC(=O)NNC(=S)NC(=O)C(c1ccccc1)c1ccccc1 | 0.6 | -0.9
COCCNC(=O)CN1CN(c2ccccc2)C2(CCN(C(=O)Nc3c(C(C)C)cccc3C(C)C)CC2)C1=O | 8.4 | 19.3
CN1C(=O)C2(CCCN(C(=O)c3cnn4cccnc34)C2)c2ccccc21 (stereo unspecified) | -1.4 | 10.0
COc1ccc(CCNC(=O)c2c(C)noc2-c2cccs2)cn1 | 4.4 | 12.1
CCc1ccccc1NC(=O)Cn1nc(-c2ccco2)c2sc(N3CCOCC3)nc2c1=O | -3.9 | -6.4
CN1CCC(NCc2cc(Br)ccc2OCc2ccccn2)CC1 | 1.2 | -2.2
COc1ccc(-c2nc(NC(=O)CCCCl)sc2C)cc1 | -4.5 | -9.4
NC(=O)NC(=O)C(c1ccccc1)N1CCc2sccc2C1 (stereo unspecified) | -4.0 | -4.7
COc1ccc(CN(C)CN2N=C(c3ccc(F)cc3)CCC2=O)cc1 | 2.2 | 14.0
CN1CCCN(C(=O)c2ccccc2NC(=O)c2cc(Cl)cc(Cl)c2)CC1 | 3.4 | 3.9
COc1cc(-c2cc(C(=O)NCCC#N)c3ccccc3n2)cc(OC)c1OC | 16.1 | 11.5
c1cncc(-c2nc(CCNC3CCC4(CCNCC4)CC3)cs2)c1 | 18.6 | 6.1
O=C(NCCc1ccccn1)c1cc2n(n1)CCN(Cc1ccccc1C(F)(F)F)C2=O | -5.4 | 9.0
CCOC(=O)C1CCN(C(c2ccc(OC)c(OC)c2)C2Sc3nc(C)nn3C2=O)CC1 (stereo unspecified) | -1.1 | -3.8
Cc1ccc(CN(C)C(=O)c2ccc3c(c2)S(=O)(=O)N=C2CCCCCN23)c(C)c1 | 1.2 | 9.2
Cc1cc(C)n(-c2ccc(N3CCN(S(=O)(=O)c4ccccc4)CC3)nn2)n1 | -5.2 | -7.4
COCCCn1ccc(Nc2ncccc2C#N)n1 | -2.2 | -4.8
Oc1ccc(SC/C=C/Cl)cc1 | 1.3 | -2.0
NC(=O)c1csc(C(=O)Nc2ccc(F)c(Br)c2)c1 | -0.6 | -1.0
CS(=O)(=O)N(CC(O)CON=C1c2ccccc2-c2ccccc21)c1ccc(F)cc1 (stereo unspecified) | 7.9 | 8.1
C#CCn1c(=NC(=O)c2cccc(S(C)(=O)=O)c2)sc2cc(OCC)ccc21 | 6.0 | 4.8
COc1ccccc1Oc1ccc(C(F)(F)F)cc1NC(=O)Cn1nc([N+](=O)[O-])cc1C | 9.4 | 6.1
COCCN(Cc1cccc(OS(=O)(=O)c2ccc(OC)cc2)c1)C(=O)c1ccccc1Cl | 1.1 | 6.4
Cc1nn(C(=O)c2ccccc2)c(C)c1Sc1ccccc1 | 35.6 | 34.6
Cc1cccc2nc(CSc3cccc4cccnc34)cn12 | -8.7 | -15.7
CCOC(=O)C1=C(C)N(Cc2ccccc2)C(=O)NC1c1cccc([N+](=O)[O-])c1 (stereo unspecified) | -0.5 | -4.4
O=C(c1ccc2ccccc2n1)N(Cc1cccnc1)C1CC1 | 7.7 | 7.1
Cc1ccc(-n2nc(C(=O)NCC3CCCO3)c(=O)n(Cc3cccc(Cl)c3)c2=O)cc1F (stereo unspecified) | -0.6 | 10.6
Further structures follow.
SMILES | NPYLR7 agonist | NPYLR7 agonist max-min
COc1ccc(Cc2nnc3n2N(C(C)=O)C(c2ccccc2)=C(C(C)=O)S3)cc1 | 7.5 | 5.9
C=CCONC(=O)CN1C(=O)C(Cc2ccccc2)NC(=O)c2ccccc21 (stereo unspecified) | 0.0 | 20.5
Cc1nn(-c2ccccc2)nc1C(=O)NCc1ccc2c(c1)OCO2 | -1.2 | -3.4
Cc1cccc(-n2nc(-c3ccccc3)cc2C(=O)N2CCN(Cc3ccc4c(c3)OCO4)CC2)c1 | -2.2 | 2.0
CN(CCCNc1ccccc1C#N)C1CCCCC1 | 0.4 | 1.9
COc1ccccc1CNc1nc2ccccc2nc1NS(=O)(=O)c1ccccc1 | -9.1 | -15.0
OC(COc1ccccc1)CN(CCc1nc(-c2ccc(Br)cc2)no1)Cc1ccco1 (stereo unspecified) | -3.7 | 1.6
C#CCNC(=O)C(C)Nc1cccc(OCc2cccc(F)c2)c1 (stereo unspecified) | -0.6 | 0.4
CSc1ccccc1NC(=O)C1(C)CCN1C(=O)CCC1CCCC1 (stereo unspecified) | 2.8 | 2.1
Cc1nn(C)c(Cl)c1C(=O)NC1CCN(S(C)(=O)=O)CC1 | 4.8 | 1.3
COC(=O)[C@@H]1C[C@@H](NC(=O)NCCc2ccc(F)cc2)CN1C | 8.8 | 6.0
CC(C)(C)NC(=O)NC1CCN(c2ccccc2C(=O)NCc2ccncc2)CC1 | 3.0 | 14.6
COc1ccc(-c2nc3nc(-c4cccc(OC)c4O)cc(C(=O)O)c3[nH]2)cc1 | -1.7 | -1.8
O=C(CCN1CCN(CCn2cncn2)CC1)Nc1nccs1 | -3.1 | -4.5
Cc1ccc(C(=O)N2CCN(CC(=O)Nc3cccc(F)c3)CC2)o1 | 7.1 | 6.7

3 of these compounds in a different format.
The line under a structure holds: NPYLR7 agonist, NPYLR7 agonist max-min
> Cc1nn(C)c(Cl)c1C(=O)NC1CCN(S(C)(=O)=O)CC1
→ 4.8, 1.3
> C=CCONC(=O)CN1C(=O)C(Cc2ccccc2)NC(=O)c2ccccc21 (stereo unspecified)
→ 0.0, 20.5
> CSc1ccccc1NC(=O)C1(C)CCN1C(=O)CCC1CCCC1 (stereo unspecified)
→ 2.8, 2.1

Further compounds follow.
SMILES | NPYLR7 agonist | NPYLR7 agonist max-min
CCCCN(Cc1ccccc1F)C(=O)C(C)c1n[nH]c(=O)c2ccccc12 (stereo unspecified) | 2.4 | -4.4
Cc1cc(C(=O)Cn2cnc3c2c(=O)n(C)c(=O)n3C)c(C)n1C | -0.5 | 6.6
Cc1ccc(-n2c(SCc3ccc(C(=O)NC4CC4)cc3)nnc2-c2ccccc2[N+](=O)[O-])cc1 | -5.4 | -6.6
CS(=O)(=O)CCCNC(=O)Nc1cccc(F)c1F | 10.3 | 7.9
O=C(C=Cc1ccc(Br)o1)Nc1nc(-c2ccco2)c(-c2ccco2)s1 | 22.4 | 18.3
COc1nc2ccccc2cc1-c1cc(O)cc(C(=O)O)c1 | -6.2 | -11.5
O=C(Nc1cccnc1)c1cn(Cc2ccccc2)cc2c(=O)n(-c3ccccc3)nc1-2 | 6.9 | 6.2
CN(C)c1nc2c(c(=O)[nH]1)CCN(C(=O)c1ccc(C3CCCO3)s1)C2 (stereo unspecified) | 12.6 | 7.8
CCOc1ccc(C2c3[nH]c4ccccc4c3CCN2C(=O)c2occc2C)cc1 (stereo unspecified) | -0.9&6.4 | 6.1&2.5
Fc1ccccc1OCCOCCn1cncn1 | -0.5 | -0.8
COc1cccc(-c2nccn2C(C)Cn2cncn2)c1OC (stereo unspecified) | -3.1 | -5.3
Cc1ccccc1Cn1ccnc1CNc1ccccc1 | 7.5 | 22.4
COc1ccc(Nc2nc3nonc3nc2Nc2c(C)n(C)n(-c3ccccc3)c2=O)cc1 | 0.3 | -3.7
O=C(NCC1Cc2cc(F)ccc2O1)c1ccc(Cl)cc1Cl (stereo unspecified) | 0.6 | -3.2
O=C(COc1ccccc1)N(Cc1ccccn1)c1nc2ccc(F)cc2s1 | -3.2 | -8.7
COc1ccccc1-c1nc(CN2CCc3ccccc3C2CO)cs1 (stereo unspecified) | 10.6 | 9.3
CCOc1ccc(Nc2nc(NCCCOC)nc3c2cnn3-c2ccccc2)cc1 | 0.2 | -1.6

Not all compounds are listed. The share of hits here may be higher or lower than overall.
